Assay outcomes deposited in PubChem by Broad Institute.
Vaccinia inh: blocks a specific stage of Vaccinia orthopoxvirus infection, primary screen, cell-based, single point; Vaccinia-infected cells, mCherry/Venus stage reporter fluorescence; active compounds read low; some inactives read as strong as hits; activity change (mCherry), % (concentration not given with the values); 89,000 tested, 0.01% active;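 active = mCherry past -33% and 40 or more points under the early reporter, replicates agreeing; inconclusive = past -33% without that gap or agreement; tested in A549 cells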;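 also: scaled between vehicle wells and reference inhibitor wells; 23 nL library stock went into each well; one replicate is shown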
Vaccinia inh Venus: also measured in Vaccinia inh; calls as there; activity change (Venus), %; measured here: Venus reporter, other viral stage;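 negative = less Venus signal; first of two replicates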
Starred values were filed as active, the others as inactive; ? = inconclusive; nt = no result given. An excerpt (hit frequency here may not be typical).

mol,Vaccinia inh Venus,Vaccinia inh
COCC(=O)N(C)C[C@@H]1Oc2cc(-c3cccnc3)ccc2S(=O)(=O)N([C@H](C)CO)C[C@@H]1C,6,13
C[C@@H]1CCCCO[C@H](CN(C)Cc2ccc(C(F)(F)F)cc2)[C@@H](C)CN([C@H](C)CO)C(=O)c2cc(NS(=O)(=O)c3cccs3)ccc2O1,-5,-25
C[C@@H]1CN([C@@H](C)CO)C(=O)c2cc(NC(=O)Cc3ccccc3)ccc2O[C@@H]1CN(C)Cc1ccc(Cl)c(Cl)c1,nt,?
O=C(C[C@@H]1CC[C@H](NS(=O)(=O)c2ccccc2)[C@@H](CO)O1)NCc1ccccc1F,-8,-16
COc1ccc(CN(C)C[C@H]2Oc3c(NC(=O)NC4CCCCC4)cccc3C(=O)N([C@@H](C)CO)C[C@@H]2C)cc1,-12,-21
CCC(=O)N1CC(=O)N2[C@@H](CO)[C@H](c3ccc(C#CC4CCCCC4)cc3)[C@@H]2C1,-27,4
C/C=C/c1ccc([C@@H]2[C@H](CO)N3C(=O)CN(C(=O)Nc4ccc(OC)cc4)C[C@@H]23)cc1,-11,-8
O=C(C[C@H]1CC[C@H](NC(=O)C2CC2)[C@@H](CO)O1)NC1CCC1,7,4
COCC#Cc1ccc2c(c1)O[C@H](CN(C)C(=O)Nc1ccc(OC)cc1)[C@H](C)CN([C@@H](C)CO)S2(=O)=O,-7,-6
COc1cc2c(cc1O)C=[N+](Cc1cc3c(cc1Br)OCO3)CC2,-6,-11
CCC(=O)Nc1ccc2c(c1)C(=O)N(C)C[C@@H](OC)[C@@H](C)CN(Cc1ccccc1F)[C@H](C)CO2,-6,-5
C[C@@H]1CN([C@@H](C)CO)C(=O)c2cc(C3=CCCC3)cnc2O[C@H]1CN(C)Cc1cccc(F)c1,-17,-6
CO[C@H](CN(C)C(=O)c1cnccn1)[C@H](C)CN([C@@H](C)CO)S(=O)(=O)c1ccc(F)cc1,19,14
COc1ccc(-c2ccccc2[C@H]2[C@@H](C#N)N(C(=O)C3CCOCC3)[C@H]2CO)cc1,3,9
O=C(C[C@H]1CC[C@@H]2NC[C@@H](O)COC[C@H]2O1)NC1Cc2ccccc2C1,15,6
CCC(=O)N[C@@H]1CC[C@H](CCNC(=O)Nc2ccc(F)cc2)O[C@H]1CO,15,2
COc1ccc(C#Cc2ccc([C@H]3[C@@H](CO)N4CCCCN(S(=O)(=O)c5cn(C)cn5)C[C@@H]34)cc2)cc1,-25,-32
COCC(=O)N1C[C@H]2[C@@H](c3ccccc31)[C@H](CO)N2Cc1cc(F)ccc1F,9,8
O=C(C[C@H]1C[C@H]2c3cc(NC(=O)c4cccnc4)ccc3O[C@H]2[C@H](CO)O1)NCc1ccncc1,6,7
CCCN(C)C[C@@H]1Oc2cc(C#Cc3ccccn3)ccc2S(=O)(=O)N([C@@H](C)CO)C[C@@H]1C,11,16
COc1ccc(CN(C)C[C@H]2Oc3ccc(NC(=O)Nc4ccc(C(F)(F)F)cc4)cc3C(=O)N([C@H](C)CO)C[C@H]2C)cc1,nt,?
COCC#Cc1ccc2c(c1)O[C@@H](CN(C)C(=O)Nc1ccccc1F)[C@@H](C)CN([C@H](C)CO)S2(=O)=O,5,2
C[C@@H]1CCCCO[C@H](CN(C)C(=O)Nc2ccc3c(c2)OCO3)[C@@H](C)CN([C@H](C)CO)C(=O)c2cc(NC(=O)c3ccncc3)ccc2O1,-6,-1
C[C@@H]1CN([C@H](C)CO)C(=O)Cc2cc(NC(=O)Nc3cccc4ccccc34)ccc2O[C@H]1CN(C)Cc1ccc2c(c1)OCO2,1,-4
Cc1ccc(-c2ccc([C@@H]3[C@H](CO)N4CCCCN(C)C[C@@H]34)cc2)cc1,nt,?
CO[C@H]1CN(C)C(=O)c2cc(NC(=O)C3CC3)ccc2OC[C@H](C)N(C(=O)c2cccnc2)C[C@H]1C,1,10
COc1cccc(NC(=O)N2CC(=O)N3[C@H](C2)[C@H](c2ccc(C#CCC4CCCC4)cc2)[C@@H]3CO)c1,-9,-15
C[C@@H]1CN([C@H](C)CO)S(=O)(=O)c2ccc(-c3ccncc3)cc2O[C@H]1CN(C)Cc1ccccc1,nt,?
N#C[C@@H]1N[C@@H](CO)[C@@H]1c1ccc(C#CC2CCCCC2)cc1,7,11
O=C1CN(S(=O)(=O)c2ccccc2)C[C@H]2[C@@H](c3ccc(C4=CCCC4)cc3)[C@H](CO)N12,3,12
C[C@@H]1CN([C@@H](C)CO)C(=O)c2ccccc2-c2ccccc2CO[C@@H]1CN(C)Cc1ccc(O)cc1,-5,-9
CCCNC(=O)N1C[C@H](O)COC[C@@H]2O[C@H](CC(=O)N[C@@H]3CCN(Cc4ccccc4)C3)CC[C@H]21,10,8
C[C@@H]1CN([C@@H](C)CO)C(=O)c2cccc(NS(=O)(=O)c3ccccc3)c2O[C@H]1CN(C)C(=O)Nc1ccc2c(c1)OCO2,-1,-3
C[C@@H]1CCCCO[C@H](CN(C)C(=O)c2ccccc2)[C@@H](C)CN([C@@H](C)CO)C(=O)c2cc(NC(=O)Nc3ccccc3)ccc2O1,4,4
CN1C(=O)c2cc(NS(=O)(=O)c3ccccc3F)ccc2OC[C@H]2O[C@@H](CC(=O)NC3Cc4ccccc4C3)CC[C@H]21,-7,-17
COc1cccc(-c2ccc3c(c2)O[C@@H](CN(C)C)[C@H](C)CN([C@H](C)CO)S3(=O)=O)c1,-7,-16
Cc1ccc(S(=O)(=O)Nc2ccc3c(c2)C(=O)N([C@H](C)CO)C[C@H](C)[C@H](CN(C)Cc2ccc(Cl)c(Cl)c2)OCCCC[C@H](C)O3)cc1,nt,?
CCCNC(=O)N(C)C[C@@H]1Oc2ncc(-c3cccc(C#N)c3)cc2C(=O)N([C@@H](C)CO)C[C@@H]1C,10,12
COc1ccc(-c2ccc([C@@H]3[C@@H](C#N)N(C(=O)NC4CCCC4)[C@H]3CO)cc2)cc1,5,-1
O=C(c1ccccc1F)N1CC[C@@H]2[C@@H](CO)Nc3ccc(C#Cc4ccccc4F)cc3[C@@H]21,-12,-13
CCC(=O)Nc1ccc2c(c1)C(=O)N(C)C[C@H](OC)[C@H](C)CN(Cc1ccccc1F)[C@@H](C)CO2,-9,-15
COc1ccc(CNC(=O)C[C@@H]2C=C[C@@H](NS(=O)(=O)c3cccc(OC)c3)[C@H](CO)O2)cc1,-8,-6
CCCC(O)C#Cc1cnc2c(c1)C(=O)N([C@H](C)CO)C[C@H](C)[C@H](CN(C)C(=O)Nc1c(C)noc1C)O2 (stereo partly drawn),6,20
COCC#Cc1ccc([C@@H]2[C@@H](CO)N3C(=O)CN(C(=O)C4CCCCC4)C[C@H]23)cc1,7,5
CCC(=O)N(C)C[C@@H]1Oc2cc(/C=C/c3ccccc3)ccc2S(=O)(=O)N([C@@H](C)CO)C[C@H]1C,-28,-26

Record cards, as listed above. Screens in order: Vaccinia inh Venus	Vaccinia inh
C[C@@H]1CCCCO[C@H](CN(C)C(=O)c2ccccc2)[C@@H](C)CN([C@@H](C)CO)C(=O)c2cc(NC(=O)Nc3ccccc3)ccc2O1 across the screens: 4	4
COc1cccc(-c2ccc3c(c2)O[C@@H](CN(C)C)[C@H](C)CN([C@H](C)CO)S3(=O)=O)c1 across the screens: -7	-16
CCCNC(=O)N(C)C[C@@H]1Oc2ncc(-c3cccc(C#N)c3)cc2C(=O)N([C@@H](C)CO)C[C@@H]1C across the screens: 10	12
CCC(=O)Nc1ccc2c(c1)C(=O)N(C)C[C@H](OC)[C@H](C)CN(Cc1ccccc1F)[C@@H](C)CO2 across the screens: -9	-15
C[C@@H]1CN([C@@H](C)CO)C(=O)c2cccc(NS(=O)(=O)c3ccccc3)c2O[C@H]1CN(C)C(=O)Nc1ccc2c(c1)OCO2 across the screens: -1	-3

(further entries)
mol,Vaccinia inh Venus,Vaccinia inh
O=C(NCC[C@H]1CC[C@@H](NS(=O)(=O)c2ccc(F)cc2)[C@H](CO)O1)Nc1ccc(Cl)cc1,-11,-17
O=C(C[C@@H]1C=C[C@H](NS(=O)(=O)c2ccc(F)cc2)[C@@H](CO)O1)NCCc1ccncc1,20,13
C[C@H]1CN([C@@H](C)CO)S(=O)(=O)c2ccc(-c3cncnc3)cc2O[C@@H]1CN(C)C,9,24
O=C(N[C@@H]1CC[C@@H](CCNS(=O)(=O)c2ccc(F)cc2)O[C@@H]1CO)C1CCC1,-2,1
CCNC(=O)C[C@H]1CC[C@H]2[C@@H](COC[C@@H](O)CN2C(=O)Nc2c(C)noc2C)O1,7,7
COc1ccc(-c2ccc3c(c2)O[C@@H](CN(C)C(=O)c2ccccc2F)[C@@H](C)CN([C@H](C)CO)S3(=O)=O)cc1,nt,?
C[C@H](CO)N1C[C@H](C)[C@@H](CN(C)C)OCCCC[C@H](C)Oc2ccc(NC(=O)Nc3cccc4ccccc34)cc2C1=O,-8,-11
C[C@@H]1CN([C@@H](C)CO)S(=O)(=O)c2ccc(C3=CCCCC3)cc2O[C@@H]1CN(C)C(=O)C1CCC1,-32,-31
CC(C)NC(=O)N(C)C[C@@H]1Oc2ncc(-c3cccc(F)c3)cc2C(=O)N([C@H](C)CO)C[C@@H]1C,3,13
C[C@@H]1CN([C@H](C)CO)C(=O)c2cccc(NC(=O)c3ccc(-c4nccs4)cc3)c2O[C@@H]1CN(C)Cc1ccc(Oc2ccccc2)cc1,-29,-23
COCC(=O)Nc1ccc2c(c1)OC[C@H](C)N(Cc1ccccc1F)C[C@@H](C)[C@@H](OC)CN(C)C2=O,-27,-26
C[C@@H]1CCCCO[C@@H](CN(C)S(=O)(=O)c2ccccc2)[C@@H](C)CN([C@H](C)CO)C(=O)c2cc(NC(=O)CCCN(C)C)ccc2O1,18,28
Cc1noc(C)c1NC(=O)N[C@@H]1CC[C@@H](CCNC(=O)C2CCC2)O[C@@H]1CO,5,9
COc1ccc(CN(C)C[C@H]2OCCCC[C@H](C)Oc3ccc(NC(=O)CCC(F)(F)F)cc3C(=O)N([C@H](C)CO)C[C@H]2C)cc1,nt,?
COc1ccc(C#Cc2ccc([C@H]3[C@H]4CN(C(=O)c5ccc(F)cc5)CC(=O)N4[C@H]3CO)cc2)cc1,nt,?

Taken from the results shown (2 entries):
mol,Vaccinia inh Venus,Vaccinia inh
C[C@H]1CN([C@@H](C)CO)S(=O)(=O)c2ccc(-c3cncnc3)cc2O[C@@H]1CN(C)C,9,24
O=C(N[C@@H]1CC[C@@H](CCNS(=O)(=O)c2ccc(F)cc2)O[C@@H]1CO)C1CCC1,-2,1

(next part)
mol,Vaccinia inh Venus,Vaccinia inh
COCC#Cc1ccc2c(c1)O[C@@H](CN(C)Cc1ccc3c(c1)OCO3)[C@H](C)CN([C@@H](C)CO)S2(=O)=O,nt,?
CCC(=O)Nc1ccc2c(c1)OC[C@@H](C)N(Cc1ccncc1)C[C@H](C)[C@H](OC)CN(C)C2=O,4,9
CNC[C@@H]1Oc2ncc(C#CCC(C)C)cc2C(=O)N([C@H](C)CO)C[C@@H]1C,-1,-15
Cc1ccc(S(=O)(=O)N[C@H]2CC[C@@H](CC(=O)NCc3ccncn3)O[C@H]2CO)cc1,0,-3
C[C@H](CO)N1C[C@H](C)[C@@H](CN(C)Cc2ccc(Cl)c(Cl)c2)OCCCC[C@H](C)Oc2ccc(NS(=O)(=O)c3ccc(F)cc3)cc2C1=O,nt,?
C[C@@H](NC(=O)C[C@@H]1C[C@@H]2c3cc(NC(=O)c4cccnc4)ccc3O[C@@H]2[C@H](CO)O1)c1ccccc1,8,-2
O=C(c1ccccc1)N1C[C@@H]2[C@H](c3ccccc31)[C@@H](CO)N2C(=O)c1ccccn1,7,4
COc1ccc(NC(=O)N2C[C@H](O)COC[C@@H]3O[C@@H](CC(=O)N4CCCCC4)CC[C@H]32)cc1,12,14
O=C(Nc1cc(F)ccc1F)N1CC(=O)N2[C@H](C1)[C@H](c1ccc(C#CC3CCCC3)cc1)[C@@H]2CO,nt,?
Cc1ccc(S(=O)(=O)N2CC[C@H]3[C@H](CO)Nc4ccc(C#Cc5ccc(F)cc5)cc4[C@H]32)cc1,-16,-24
C[C@H]1CN([C@@H](C)CO)C(=O)c2cc(/C=C/c3ccccc3)cnc2O[C@@H]1CN(C)C,12,12
C[C@H](CO)N1C[C@H](C)[C@H](CN(C)C(=O)NC2CCCCC2)Oc2ccc(NS(=O)(=O)c3ccc(Cl)cc3)cc2C1=O,4,9
COc1ccccc1-c1cnc2c(c1)C(=O)N([C@H](C)CO)C[C@@H](C)[C@@H](CN(C)CC1CCCC1)O2,-10,-25
CCCC#Cc1ccc2c(c1)O[C@H](CN(C)C(=O)c1ccccc1F)[C@H](C)CN([C@@H](C)CO)S2(=O)=O,nt,?
O=C(C[C@@H]1C[C@@H]2c3cc(NC(=O)C4CCC4)ccc3O[C@@H]2[C@@H](CO)O1)NCc1ccccc1,5,9
CC(C)NC(=O)N(C)C[C@H]1Oc2cc(-c3cccnc3)ccc2S(=O)(=O)N([C@@H](C)CO)C[C@@H]1C,4,12
O=C(O)CCCCCCC(=O)Nc1ccc(C2OC(CSc3ccncc3)CC(c3ccccc3)O2)cc1 (stereo not drawn),14,12
C[C@@H]1CN([C@H](C)CO)C(=O)CCCn2nncc2CO[C@H]1CN(C)C(=O)c1cc(-c2ccccc2)on1,6,5
